Bead autofluor: compound fluorescence in toxin protease inhibitor counterscreen; compound autofluorescence counterscreen, microsphere flow cytometry; hits give high values; fluorescence intensity (no concentration beside the values); 360,000 tested, 3.1% active; AID 624483;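 active = at least 3 SD above the mean of all compounds, about 16000 in these data; inconclusive = too few beads counted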;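 note: 100 nL of 1 mM stock went into each well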
PrP 5UTR inh: inhibition of PrP 5' UTR reporter expression; cell-based PrP 5' UTR mRNA reporter, plate reader; inhibition, % (no concentration beside the values); 340,000 tested, 0.35% active; AID 488862;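 active = every replicate at 50% or more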;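 note: 0 = median of the neutral control wells; tested in H4 reporter cells; numbers are from one replicate; inactives centre near -14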
Mtb hypoxia inh: inhibitors of hypoxia-regulated fluorescent reporter in Mycobacterium tuberculosis. 300,000 tested, 0.1% active. fluorescence inhibition, % (test concentration not listed). M. tuberculosis hypoxia-regulated fluorescent reporter, fluorescence;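 active = 35 to 45% if threefold the growth effect, above 45% if 1.5-fold the growth effect; inactive = the rest, general growth blockers included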;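 note: wells of about 50 µL received 100 nL stock; 0% = vehicle wells and 100% = reference inhibitor wells; whole bacteria with a GFP reporter of the hypoxia response; strong numbers were not always called active; many hits fall short of the cut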
Sa ugtP lethal: kills S. aureus RN4220 lacking UgtP; S. aureus RN4220 ugtP deletion, OD600 growth, 16 h; some inactives read as strong as hits; growth inhibition, % (test concentration not listed); 330,000 tested, 0.54% active; AID 1259309;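 active = z-score under -3 and OD600 up to 0.15 on both plates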;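 note: plate controls were untreated wells for no effect and antibiotic for full effect; wells of about 80 µL received 100 nL stock; the first replicate is given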
BJeLR lethal: BJeLR cell viability loss; BJeLR (HRASV12) viability, CellTiter-Glo ATP luminescence, 48 h; reference of the scale not given here; inhibition, % (no concentration beside the values); 300,000 tested, 0.17% active; AID 1554;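 active = replicate mean above 50%; inconclusive = above 50% but judged a plate artefact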;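 note: 50 nL library stock added to about 25 µL; numbers are from one replicate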
RN4220 kill: S. aureus RN4220 growth inhibition | OD600, 16 h | inhibition, % (concentration not given with the values) | 330,000 tested, 0.33% active;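 active = z-score of -3 or lower and OD600 up to 0.18 on both plates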;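 note: plate controls were untreated cells for no effect and reference antibiotic for full effect; stock transfer was 100 nL into about 80 µL; one replicate is shown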
Mtb hypoxia inh growth: also measured in Mtb hypoxia inh; calls as there; growth inhibition, %; measured here: M. tuberculosis growth (absorbance);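 0% = vehicle and 100% = reference antibiotic; read after six days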
Numbers without * were called inactive; u = inconclusive; x = no result given; & = joins results of further samples.

SMILES	Bead autofluor	PrP 5UTR inh	Mtb hypoxia inh	Mtb hypoxia inh growth	Sa ugtP lethal	BJeLR lethal	RN4220 kill
CCSC1=NCCN1C(=O)Cc1ccc(-c2ccccc2)cc1	4154	-13	-8	4	1	-8	11
N#CC1=C(N)NC(SCC(=O)Nc2ccc(Br)cc2)=C(C#N)C12CCCCC2	3470	-15	10	4	10	2	9.2
C=CCN(c1cccc(C(F)(F)F)c1)S(=O)(=O)c1cccc(C(=O)OCC(=O)NC(N)=O)c1	7493	-33	10	4	-9	2	12
CCCCNC(=O)Nc1ccc(C(O)(C(=O)OC)C(F)(F)F)cc1 (configuration not stated)	8229	-19	5	3	1	-7	3.4
COc1ccc(-c2coc3cc(OC4OC(CO)C(O)C(O)C4O)ccc3c2=O)cc1 (configuration not stated)	3038	-37	15&2	15&1	0&6	8	1.7&0.6
CCN(CC)c1ccc(/C=N/NC(=O)c2ccccn2)cc1	4008	-62	x	x	x	-2	x
COc1cc(-n2c(=O)c3ccccc3n(CC(=O)c3ccc(F)cc3)c2=O)cc(OC)c1OC	4689	-5	2	5	-3	3	3.8
O=C(CCc1nc2ccccc2c(=O)[nH]1)NNC(=O)c1ccc(F)cc1	4235	-8	9	0	2	x	3.7
O=C(CCSCCC(=O)NN=Cc1ccccc1)NN=Cc1ccccc1	3887	-10	4	11	5	x	0.4
CN(CCc1ccccc1)C(=O)c1cccc(NC(=O)Cc2cccc(NC(=O)C3CCCN(C(=O)c4ccccc4)C3)c2)c1 (configuration not stated)	3207	-25	-5	4	-6	x	3.2
Cc1ccc(C)c2c1cc(C)c1nnc(SCC(=O)Nc3cccc(C(=O)O)c3)n12	4489	-2	6	-11	9	2	1.9
CC(NC(=O)c1ccc(OC2CCN(Cc3ccccn3)CC2)cc1)c1nccs1 (configuration not stated)	5651	-4	-3	5	2	-12	2.7
Cc1csc(NC(=O)CSc2nnc(Cn3c(=O)sc4ccccc43)n2-c2ccccc2)n1	4252	-10	x	x	-4	x	-5.2
COc1ccc2cc(CCNC(=O)c3ccc4c(c3)OCO4)c(=O)[nH]c2c1	5527	-28	9	0	-9	7	5.8
COCCn1c(=O)[nH]c2cc(C(=O)N3CCN(c4ccc(Cl)cc4)CC3)ccc2c1=O	4605	-9	9	0	10	18	2.3
O=C(COC(=O)CN1C(=O)NC2(CCCC2)C1=O)NCc1ccc(Cl)cc1Cl	3074	8	3	-4	1	x	1.1
Cc1ccc(C(=O)OCC(=O)N2CCC(C)CC2)cc1S(=O)(=O)N1CCCCC1	5204	-20	4	2	1	1	3.2
CC(=O)c1c(C(C)=O)c(C)n(NC(=O)c2ccccc2Cl)c1C	5538	-10	2	2	1	3	0.0
CC(=O)Nc1ccc(NC2=CC(=O)CC(C)(C)C2)cc1	3661	-21	x	x	1	-2	0.4
CCSc1cc(C)nc2c(-c3ccccc3)cnn12	4121	-75	5	8	23	-3	0.2
CCOC(=O)c1ccc(NC(=O)CCn2nnc3ccccc32)cc1	3894	-15	5	8	-6	8	1.9
COc1cc(CNc2nnnn2C)ccc1OCc1c(F)cccc1Cl	4456	-14	0	4	-4	-9	3.7
Cc1ccnc(NC(=O)CCNC(=O)c2ccc(Cl)cc2)c1	u	-62	4	-4	3	0	-0.2
O=C(Nc1ccccc1-c1ccccc1)c1ccccc1[N+](=O)[O-]	3786	-2	3	7	12	-6	3.5

Looked up one by one from above:
SMILES	Bead autofluor	PrP 5UTR inh	Mtb hypoxia inh	Mtb hypoxia inh growth	Sa ugtP lethal	BJeLR lethal	RN4220 kill
Cc1ccc(C(=O)OCC(=O)N2CCC(C)CC2)cc1S(=O)(=O)N1CCCCC1	5204	-20	4	2	1	1	3.2
COc1ccc2cc(CCNC(=O)c3ccc4c(c3)OCO4)c(=O)[nH]c2c1	5527	-28	9	0	-9	7	5.8
CC(=O)Nc1ccc(NC2=CC(=O)CC(C)(C)C2)cc1	3661	-21	x	x	1	-2	0.4
Cc1ccnc(NC(=O)CCNC(=O)c2ccc(Cl)cc2)c1	u	-62	4	-4	3	0	-0.2
O=C(Nc1ccccc1-c1ccccc1)c1ccccc1[N+](=O)[O-]	3786	-2	3	7	12	-6	3.5

Two of these compounds, set out differently.
Results follow in this order: Bead autofluor | PrP 5UTR inh | Mtb hypoxia inh | Mtb hypoxia inh growth | Sa ugtP lethal | BJeLR lethal | RN4220 kill
> COc1cc(CNc2nnnn2C)ccc1OCc1c(F)cccc1Cl
    4456 | -14 | 0 | 4 | -4 | -9 | 3.7
> Cc1ccnc(NC(=O)CCNC(=O)c2ccc(Cl)cc2)c1
    u | -62 | 4 | -4 | 3 | 0 | -0.2

Continuation:
SMILES	Bead autofluor	PrP 5UTR inh	Mtb hypoxia inh	Mtb hypoxia inh growth	Sa ugtP lethal	BJeLR lethal	RN4220 kill
COCCCn1c(=S)[nH]c(C)c(C)c1=O	5597	-13	10	2	1	-6	0.2
O=C1CCCC/C1=C/NCc1ccc(F)cc1	2229	-25	14	2	3	-6	1.8
COc1cc(/C=N/NC(=O)CCc2ccccc2)ccc1O	3837	-25	x	x	x	-9	x
O=C(CCN1C(=O)c2ccccc2C1=O)Nc1ccc(S(=O)(=O)N2CCOCC2)cc1	22292*	2	12	13	1	11	6.5
CC12CN(S(=O)(=O)c3ccccc3)CC(C)(CN(S(=O)(=O)c3ccccc3)C1)C2	u	-16	1	-1	10	-2	4.7
Cc1cc(C)nc(NN=Cc2cc(Br)ccc2O)n1	x	x	-19	1	8	x	7.3
Oc1c(Cl)cc(Cl)cc1/C=N/c1nc(-c2ccc(Cl)cc2)cs1	2976	-23	x	x	x	-9	x
CCN(CC(=O)NC(C)(C)C)Cc1cc(=O)n2c(-c3ccccc3)csc2n1	5665	-18	-4	5	6	-13	4.3
Cc1ccccc1/C=C/c1cccc[n+]1C	3747	-25	9	3	7	8	0.3
O=C(c1ccco1)N1CCN(S(=O)(=O)c2cccc3nsnc23)CC1	9263	-23	-3	11	-5	-2	0.9
Cc1ccc2c(=O)cc(C(F)F)oc2c1	5118	-19	x	x	-2	-2	-0.2
CC(=O)N1CCN(S(=O)(=O)c2cccc(C(=O)Nc3nccs3)c2)CC1	3096	-31	7	5	-1	4	3.1
O=S(=O)(NCC1CCCO1)c1cccc2nsnc12 (configuration not stated)	10179	-18	2	6	0	-2	2.4
Cc1cccc(N2C(=O)C3C4C=CC(CC4)C3C2=O)c1 (configuration not stated)	3964	-20	2	-4	4	1	2.4
Cc1ccnc(NS(=O)(=O)c2ccc(N=Cc3c(O)n(C)c(=O)n(C)c3=O)cc2)n1	2533	-33	2	2	9	2	5.9
O=C(NN=Cc1ccccc1)c1ccccc1	3396	-76	12	2	-2	x	-0.7
Cc1c(Cl)cccc1NC(=O)CCC(=O)NNC(=O)c1ccccc1Cl	17035*	-13	-7	6	-4	-3	-3.0
Cc1cnc(C(=O)OCC(=O)NC(C)c2ccccc2)cn1 (configuration not stated)	4306	-24	-3	4	2	x	-0.4
O=C(O)CCn1cc(C=C2C(=O)NC(=O)NC2=O)c(-c2ccc(Br)cc2)n1	2700	-33	1	1	0	2	7.0
O=C(NCc1ccco1)c1cc2c(s1)CSC2	x	x	7	10	2	-18	3.7
Cc1ccccc1C1c2[nH]c3ccccc3c2C[C@H]2C(=O)N(C3CCN(Cc4ccccc4)CC3)CC(=O)N12 (some centres not stated)	4738	-5	x	x	x	0	x
Cc1cc(C)nc(N2CCCC(C(=O)NCc3ccccc3F)C2)n1 (configuration not stated)	5359	-29	8	4	-6	-9	5.7
COc1ccc(Cl)cc1C(=O)NCC(c1ccco1)N(C)C (configuration not stated)	5713	-13	-8	7	2	-5	4.3
CCOC(=O)c1cc(CC)sc1/N=C/C1C(=O)CC(C)(C)CC1=O	2640	4	x	x	x	-8	x
CCCC(C(=O)NCC1CCCO1)N(Cc1ccco1)C(=O)CNS(=O)(=O)c1ccccc1 (configuration not stated)	4810	2	x	x	7	-1	-2.7
CCN(C(=O)CSc1nc2ccccc2c(=O)n1-c1ccccc1F)C1CCS(=O)(=O)C1 (configuration not stated)	4726	-14	-1	2	-4	x	4.1
CCc1ccc(NC(=O)C2CCCN2c2nn3c(=O)cc(C)nc3s2)cc1 (configuration not stated)	6226	-1	3	2	-1	0	2.8
CN(C)c1nc(N(C)C)nc(N(C#N)CN2C(=O)c3ccccc3S2(=O)=O)n1	4460	-11	12	7	3	5	4.6
O=C(COc1ccc2c(c1)oc(=O)c1ccccc12)NCCN1CCOCC1	5040	-21	12	1	4	-4	2.8
CC1CCN(C(=O)CNC(=O)c2cccc(OC(F)F)c2)CC1	4404	-16	4	9	8	0	-2.6
CCOc1ccc(NC(=O)NNC(=O)c2ccc(Cl)cc2Cl)cc1	4555	-43	4	8	2	11	5.9
CCc1nnc(NS(=O)(=O)c2ccc(N/C=C/C(=O)c3ccc(OC)cc3)cc2)s1	4696	-41	17	22	1	-3	9.9
C[C@]12CCC3C(CC[C@H]4C[C@@H](O)CC[C@]34C)C1C[C@@H](O)[C@@H]2O (some centres not stated)	4270	-19	8	8	3	x	5.9
COc1ccc(C(=O)Nc2cc(OCc3ccccc3)c(Cl)cc2Cl)cc1	2841	-15	x	x	-4	-1	-7.0
CCCCN(C(=O)NC(=O)Nc1ccc(C)cn1)S(C)(=O)=O	2205	-37	4	5	6	x	-1.2
CCOC(=O)c1sc(NC(=O)CSc2nnnn2-c2ccc(C)cc2)c(C(=O)OCC)c1C	9889	-9	-1	3	-13	-5	1.0
CC(=O)Oc1ccccc1C1=NN(C(C)=O)C(c2ccccc2)C1 (configuration not stated)	3280	-23	1	4	-9	0	2.2
Cn1c(C(=O)NCCN2CCN(c3ccccc3F)CC2)cc2c(=O)n(C)c3ccccc3c21	6168	-10	x	x	11	-2	2.3
Cc1ccc2nc(NC(=O)Cc3cccs3)sc2c1	21273*	-92	6	8	-3	-13	2.0
Cc1ccccc1OCC(=O)OCC(=O)Nc1ccc2c(c1)OCO2	5627	-4	-7	3	8	x	7.8
CC(C)C=NNc1nc(-c2ccc(Br)cc2)cs1	x	x	4	-3	30	x	-4.2
O=C(CN1CCOCC1)Nc1ccc2c(c1)CCC2	4001	-14	11	6	11	10	0.8
Cc1sc2nnn(CC(=O)N3CCN(C(=O)c4ccco4)CC3)c(=O)c2c1C	7730	2	2	9	3	-22	1.5
COc1cccc(NC(=O)C2CCN(S(=O)(=O)c3ccc4c(c3)NC(=O)C(C)S4)CC2)c1 (configuration not stated)	5739	-6	-12	-13	-7	-2	-0.3
CN(CCc1ccccn1)C(=O)CC1C(=O)NCCN1Cc1cccc(F)c1 (configuration not stated)	6359	-16	7	8	5	-6	0.5
COc1cccc(C=NNC(=O)CSc2ccccc2C)c1O	x	x	11	-4	13	x	2.5
Cc1ccccc1C(=O)Nc1nc(=S)ss1	2747	-51	x	x	29	10	57
CCOC(=O)CCCNC(=O)CCNC(=O)c1ccc(OCCC(C)C)cc1	x	x	-12	0	3	-5	0.6
O=S(=O)(NC1CCCCC1Sc1ncccn1)c1ccc(Cl)cc1 (configuration not stated)	3294	-10	8	8	7	14	4.3
COc1ccc(-c2csc(Cc3nnc(N4CCOCC4)n3-c3ccccc3)n2)cc1	5927	-17	9	6	2	2	0.6
Cc1cc(C)c(NC(=O)CNC(=O)COC(=O)CN2C(=O)NC3(CCCC3)C2=O)c(C)c1	u	-3	4	2	-6	3	1.1
COc1cc(-c2nc3cnccn3c2NC(C)(C)CC(C)(C)C)ccc1O	3176	-21	1	-1	-5	-20	4.6
CC(C)(C)OC(=O)NC(CO)c1cn([C@@H](Cc2cc3ccccc3[nH]2)C(=O)N2CCN(C(=O)OC(C)(C)C)CC2)nn1 (some centres not stated)	4061	-39	x	x	x	6	x
Cc1ccc(N2CCN(S(=O)(=O)c3ccc(-n4cnnn4)cc3)CC2)c(C)c1	5331	-7	-5	-1	6	9	0.3
CC1=CCC(C(=O)O)C(C(=O)Nc2cccnc2)C1 (configuration not stated)	5029	-12	11	6	2	4	0.2
COc1ccc(C(=O)C=Cc2cccs2)c(O)c1	4015	-79	18	9	7	x	5.1
C=CCSc1nccc(-c2cc(Cl)sc2Cl)n1	2584	-36	x	x	7	0	10
Cc1cccc(C)c1NC(=S)NCCSc1ccc(Cl)cc1	3954	-14	7	-2	10	4	2.1
COc1cccc(CNc2ccc(N3CCC(C)CC3)cc2)c1OC	19533*	-30	-2	-4	4	-9	-0.4
COc1ccc(OC)c(C2C3=C(COC3=O)Nc3cc4c(cc32)OCO4)c1 (configuration not stated)	19754*	58*	3	5	-1	12	1.7
